Screens as filed in PubChem BioAssay.
FGF22 binding: binders of recombinant human FGF22 by thermal shift; AID 651658; hit rate 1.5% among 340,000; calls only at 9.99 µM; Q9HCT0; SYPRO orange fluorescence; percent of sucrose octasulfate shift, DMSO zero;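 active = melting point raised past a set limit in the mean and every replicate; three in four hits are not shown here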
Target sequence (Q9HCT0 whole entry, looked up): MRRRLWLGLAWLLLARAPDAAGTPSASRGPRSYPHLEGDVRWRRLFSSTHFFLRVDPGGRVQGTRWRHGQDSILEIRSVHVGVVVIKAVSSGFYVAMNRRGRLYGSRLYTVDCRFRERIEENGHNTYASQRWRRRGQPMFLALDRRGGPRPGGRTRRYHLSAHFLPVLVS
ALR H2O2 inh: inhibitors of human sulfhydryl oxidase ALR | purified ALR, DTT oxidation, H2O2 HRP-luminol luminescence | P55789 | inhibition, % (concentration not given with the values) | hit rate 3.8% among 290,000;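 active = mean and each replicate at 75% or more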;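 note: stock transfer was 7.5 nL into about 7.5 µL; 0% = neutral wells and 100% = wells with inactivated enzyme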
Target sequence (P55789 whole entry, looked up): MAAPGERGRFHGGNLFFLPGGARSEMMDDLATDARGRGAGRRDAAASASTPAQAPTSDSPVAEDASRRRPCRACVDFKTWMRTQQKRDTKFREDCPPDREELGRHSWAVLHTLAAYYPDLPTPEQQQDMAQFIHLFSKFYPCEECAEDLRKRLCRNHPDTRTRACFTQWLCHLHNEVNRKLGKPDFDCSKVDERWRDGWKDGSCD
E coli growth: inhibitors of Escherichia coli growth | OD600 absorbance (no concentration beside the values) | OD600, 23 h; stronger effect = lower value | hit rate 0.21% among 330,000 | AID 1053175;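 active = OD600 absorbance below the run mean of sample wells minus 3.6 SD, in any replicate, cut at about 0.56 in these data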;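 note: stock transfer was 300 nL into about 60 µL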
HNF4A DNA FP: change in binding of human HNF4 alpha to DNA | P41235 | HNF4a-FITC DNA binding, fluorescence polarization, 1 h | activity change, % at 10 µM | hit rate 0.3% among 360,000 | AID 1224865; in the data active = activity change above about 30%, passing the limit was not always enough;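 note: controls were the assay level and a saturating level of protein; the project sought stronger binding though the title names inhibitors; some compounds called inactive have numbers as strong as hits; positive values seem to mean higher polarization but the record does not say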
Target sequence (P41235 whole entry, looked up): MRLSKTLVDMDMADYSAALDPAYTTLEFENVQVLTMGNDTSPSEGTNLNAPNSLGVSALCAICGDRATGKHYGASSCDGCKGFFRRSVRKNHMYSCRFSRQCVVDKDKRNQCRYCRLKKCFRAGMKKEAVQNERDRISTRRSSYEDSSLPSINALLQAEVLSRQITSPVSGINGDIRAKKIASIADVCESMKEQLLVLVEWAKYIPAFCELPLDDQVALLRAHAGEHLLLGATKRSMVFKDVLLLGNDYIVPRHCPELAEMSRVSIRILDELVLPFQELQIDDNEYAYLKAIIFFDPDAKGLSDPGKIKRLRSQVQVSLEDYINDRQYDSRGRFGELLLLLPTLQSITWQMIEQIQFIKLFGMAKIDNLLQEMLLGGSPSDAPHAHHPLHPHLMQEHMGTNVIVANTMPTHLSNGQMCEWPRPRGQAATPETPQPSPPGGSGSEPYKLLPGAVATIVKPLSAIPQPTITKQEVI
Beta2AR agonist: human beta-2 adrenergic receptor agonism by FAP | Am2.2-beta2AR cells, FAP receptor internalization, flow cytometry; reference of the scale not given here | P07550 | AID 504454 | hit rate 0.43% among 340,000 | response, % (no concentration beside the values);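 active = response above a set limit, near 3 SD of response in nonfluorescent compounds, cut at about 42% in these data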;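 note: stock transfer was 100 nL into about 11 µL; a reference agonist was the positive control; negative values mostly stem from fluorescent compounds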
rRNA inh HTS: inhibitors of bacterial rRNA selective over humanized ribosomes | E. coli WT GFP vs humanized-ribosome RFP mutants, fluorescence, 24 h; stronger effect = lower value; DMSO median 0, no signal -100 | GFP signal change (wild-type ribosome), % (concentration not given with the values) | hit rate 1.6% among 350,000 | AID 720706;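 active = significant combined selectivity score with lowered wild-type GFP, culture density cut under 30%, mutant RFP and density less affected; inactive = any of these conditions unmet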; note: one replicate is shown; some compounds called inactive have numbers as strong as hits
UCH37 DUB inh: inhibitors of human deubiquitinating enzyme UCH37; purified proteasome/UCH37, Ub-AMC cleavage fluorescence; hit rate 0.33% among 330,000; inhibition, % (no concentration beside the values); Q9Y5K5;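 active = mean of two replicates above 20%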;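 note: 0% = compound-free wells with enzyme and 100% = wells lacking proteasome; stock transfer was 100 nL into about 20 µL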
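Signal – fluorescence, ex 355 nm, em 460 nm · System – Proteasome-bound UCH37 · Input – 0.15 nM proteasome as dispensed · Timing – 30 min preincubation with enzyme, 25 min cleavage at room temperature · Read-out basis – percent inhibition of cleavage signal versus uninhibited and no-proteasome wells · Medium – Tris-HCl pH 7.4 with ATP-MgCl2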
rRNA inh HTS OD600: recorded beside rRNA inh HTS, whose call it bears; OD600 change, %; measured here: OD600 growth;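 optical density of the mix in the first replicate; 0 = DMSO median and -100 = no signal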
rRNA inh HTS RFP: second read-out of rRNA inh HTS, no call of its own (marks repeat the call); RFP signal change, %; measured here: RFP humanized mutant strains;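 first replicate; 0 = DMSO median and -100 = no signal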
Starred values were filed as active, the others as inactive; i = inactive; x = not tested or not shown.

SMILES	FGF22 binding	ALR H2O2 inh	E coli growth	HNF4A DNA FP	Beta2AR agonist	rRNA inh HTS	rRNA inh HTS OD600	rRNA inh HTS RFP	UCH37 DUB inh
CSc1ccc(/C=C/C(=O)OCC(=O)N2CCCCCC2)cc1	i	-1	0.67	-1.0	3	-6	-13	2.6	-159
CCCCCn1c(=O)c(C(=O)OCC)c(O)c2ccccc21	x	x	0.75	-1.2	7	x	x	x	1.6
Cc1ccc(S(=O)(=O)Nc2ccc(N3CCOCC3)cc2)cc1	x	-1	0.69	3.6	-2	x	x	x	-2.4
CCCn1c(N2CCN(C(=O)/C=C/C(=O)O)CC2)nc2ccccc21	i	22	0.67	-3.1	6	10	9	3.5	-2.9
Cc1[nH]c2ccccc2c1C(=O)CSC(=S)N(C)C1CCCCC1	x	0	0.69	-1.3	-1	x	x	x	0.4
CN(CCO)S(=O)(=O)c1ccc2c(c1)C(=NN)c1cc(S(=O)(=O)N(C)CCO)ccc1-2	i	0	0.69	-1.9	-1	4	15	-0.9	5.7
CCc1cccc(NC(=O)CCCn2c(=O)[nH]c3ccsc3c2=O)c1	i	-19	0.64	-1.4	1	0	2	-2.4	2.1
c1ccc2c(c1)CCN(C1CCCCC1)C2	i	-21	0.63	0.2	4	9	11	-0.6	0.3
COC(=O)c1sccc1NC(=O)CC1C(=O)NCCN1C(=O)Nc1cc(Cl)ccc1OC (stereo unspecified)	i	0	0.65	-3.1	-8	-22*	-10*	3.9*	7.2
Cc1ccc([C@H]2C[C@H](O)[C@@H](n3cc(C4CC4)nn3)CN2Cc2cccs2)cc1	i	x	x	3.3	x	-14	-27	11	x
O=C(Nc1ccc(N2CCOCC2)cc1)c1cccc(S(=O)(=O)N2CCCC2)c1	x	x	0.72	-1.3	1	x	x	x	0.1
CC(=O)N1c2ccc(S(=O)(=O)NCCC(=O)N(C)C3CCCCC3)cc2CC1C (stereo unspecified)	i	-7	0.69	6.4	-5	3	4	-0.1	1.8
CCC(C)(C)C1CCC(=NNc2nc3ccccc3[nH]2)CC1 (stereo unspecified)	i	1	0.69	0.8	4	-13	3	2.8	3.8
O=C(CCN1C(=O)C2CC=CCC2C1=O)OCC(=O)c1ccc(F)cc1 (stereo unspecified)	i	-9	x	0.2	3	2	11	-1.5	x
CC1Cn2c(nnc2-c2ccc(F)cc2)S1 (stereo unspecified)	i	x	0.64	1.4	-2	10	12	-2.5	2.6
Oc1ccc(C(=S)N2CCN(Cc3ccccc3)CC2)cc1	i	15	0.65	3.4	1	-7	-7	-11	3.9
O=C(COC(=O)c1ccccc1Oc1ccccc1)NCc1ccco1	x	9	0.67	-1.0	-1	x	x	x	1.2
Cc1ccc(-c2csc3ncnc(-n4nc(C)cc4N)c23)cc1	x	-13	0.76	0.3	-10	x	x	x	-2.5
O=C1CCCC2=C1C1(CCCC1)N=C(Nc1nc3ccccc3o1)N2	i	x	x	1.1	x	-1	4	1.7	x
CCC(=O)N1CCC1(C)C(=O)Nc1ccc(C)c(C)c1 (stereo unspecified)	i	x	x	-0.5	x	3	9	-0.8	x
COCCn1c(SCC(=O)Nc2ccc3c(c2)OCCO3)nc2c(c1=O)SC(C)C2 (stereo unspecified)	i	99*	0.68	-1.7	4	-6	-17	4.8	13
Cc1ccc(NC(=O)CSCC(=O)Nc2cc(C(F)(F)F)ccc2N2CCOCC2)cc1	x	-15	0.69	-0.5	4	x	x	x	6.4
O=C(Nc1ccc(F)cc1)N1CCN(c2ccc(F)cc2)CC1	i	25	0.63	3.0	16	10	13	2.5	1.8
COC(=O)c1cccc(NC(=O)c2cnoc2C)c1	x	-2	0.72	0.2	-3	x	x	x	3.1
Cc1cc(Br)ccc1S(=O)(=O)NCc1ccccc1	x	-6	0.67	3.5	4	-28	-36	5.7	5.5
Next compounds
SMILES	FGF22 binding	ALR H2O2 inh	E coli growth	HNF4A DNA FP	Beta2AR agonist	rRNA inh HTS	rRNA inh HTS OD600	rRNA inh HTS RFP	UCH37 DUB inh
COc1ccc(OC)c(-c2csc(NC(=O)Cc3ccccc3)n2)c1	i	-3	0.69	-0.7	0	-49	-61	-17	4.8
COc1ccc(NC(=O)CC(c2ccco2)C(C)C)cc1 (stereo unspecified)	x	12	0.69	2.6	-2	4	2	3.5	5.2
CS(=O)(=O)N(CC(=O)NCc1ccncc1)c1cc(Cl)ccc1Cl	i	-5	0.66	2.6	0	13	5	-1.2	-1.5
CCOC(=O)[C@@H]1[C@H]2COc3ccc(Br)cc3[C@@H]2N2C(=O)N(c3cccc(F)c3)C(=O)[C@]12C	i	-1	x	-1.9	2	-3	-13	-5.1	-1.1
O=C(COC(=O)c1ccc(Cl)cc1O)Nc1cccnc1Cl	i	-3	0.65	-1.8	21	1	2	-3.2	-1.5
O=C(O)c1ccccc1N1C(=O)c2cccc3cccc(c23)C1=O	i	-8	0.64	3.1	-2	3	-9	-5.6	-3.8
CC(=O)Nc1ccc(C(=O)CSc2nnc(-c3ccc(O)cc3)n2CC2CCCO2)cc1 (stereo unspecified)	i	24	0.69	1.4	-1	4	-4	-0.7	-0.2
COCCCNc1oc(/C=C/c2ccccc2)nc1C#N	i	29	0.68	0.0	-2	-8	-10	-1.7	i
Cn1cccc1/C=C1\SC(=S)N(NC(=O)c2ccc(Cl)cc2)C1=O	x	2	0.7	75*	-4	x	x	x	1.9
O=C(CN1C(=O)C2CCCCC2C1=O)N1CCN(c2ccccc2)CC1 (stereo unspecified)	i	4	0.7	-1.6	-1	11	12	1.2	6.4
CC1Cc2cc(S(=O)(=O)N3CCC(C(=O)N4CCCCC4)CC3)ccc2N1C(=O)C1CC1 (stereo unspecified)	i	-3	0.6	2.0	-11	1	12	0.6	-0.3
CCn1cc(C(=O)NCCC(=O)NC(C)C)c(=O)c2cc3c(cc21)OCO3	i	-3	0.66	-1.3	6	9	16	1.1	-1.7
CN(C)CCN1CC(C(=O)O)CC1=O (stereo unspecified)	x	-9	0.76	-2.8	0	x	x	x	-2.9
Cc1cc(C)cc(N(CCC#N)C(=O)CN2C(=O)NC3(CCCC3)C2=O)c1	i	1	0.67	3.6	-8	5	7	1.9	1.8
CCCC(=O)Nc1ccc(C(=O)O)cc1NC(=O)CCC	x	-4	0.71	29	-1	x	x	x	-1.1
Cc1[nH]n(-c2ccc([N+](=O)[O-])cc2)c(=O)c1C=NCCN1CCN(C(=O)c2ccccc2)CC1	x	x	0.64	-2.1	-5	x	x	x	8.7
O=C(CSCc1ccc(Cl)cc1)N/N=C/c1c(Cl)cccc1Cl	i	-9	x	-0.8	-5	6	5	-4.4	x
O=S1(=O)[C@H]2CC3O[C@]2(C[C@@H]3c2ccc(F)cc2)CN1Cc1ccc(Cl)cc1	x	0	x	3.4	6	x	x	x	-0.3
CC12CCC(=O)N1C(C(=O)NNC(=O)c1ccc(F)cc1)CS2 (stereo unspecified)	i	2	0.6	5.2	-4	0	2	0.5	2.1
Nc1c(N=Nc2cccc(Cl)c2)c(=O)[nH]n1-c1ccccc1	x	-1	x	1.0	4	x	x	x	-1.6
Cc1csc(NC(=O)CCC(=O)c2cccs2)n1	i	-3	0.64	7.3	-12	-8	-1	1.9	0.3
COc1cccc(/C=C/C(=O)OCC(=O)NCCc2ccccc2)c1	i	-7	0.7	4.2	4	-11	-3	0.5	-10
Cc1noc(C)c1S(=O)(=O)Nc1ccc2c(c1)C(=O)N([C@@H](C)CO)C[C@@H](C)[C@@H](CN(C)CC1CCCCC1)OCCCC[C@@H](C)O2	i	x	x	0.3	x	1	2	0.6	x
CC(=O)Nc1ccc(S(=O)(=O)NCCC(=O)OCC(=O)c2ccc(Br)cc2)cc1	i	-3	0.72	-3.0	4	4	4	0.8	2.6
COc1ccc(/C=C(\C#N)C(=O)OCC(=O)Nc2c(C)cccc2C)cc1	i	x	0.71	5.8	1	x	x	x	-0.2

One compound at a time, from the list above.
`O=S1(=O)[C@H]2CC3O[C@]2(C[C@@H]3c2ccc(F)cc2)CN1Cc1ccc(Cl)cc1` is listed as FGF22 binding = x; ALR H2O2 inh = 0; E coli growth = x; HNF4A DNA FP = 3.4; Beta2AR agonist = 6; rRNA inh HTS = x; rRNA inh HTS OD600 = x; rRNA inh HTS RFP = x; UCH37 DUB inh = -0.3
`O=C(COC(=O)c1ccc(Cl)cc1O)Nc1cccnc1Cl` is listed as FGF22 binding = i; ALR H2O2 inh = -3; E coli growth = 0.65; HNF4A DNA FP = -1.8; Beta2AR agonist = 21; rRNA inh HTS = 1; rRNA inh HTS OD600 = 2; rRNA inh HTS RFP = -3.2; UCH37 DUB inh = -1.5
`CCCC(=O)Nc1ccc(C(=O)O)cc1NC(=O)CCC` is listed as FGF22 binding = x; ALR H2O2 inh = -4; E coli growth = 0.71; HNF4A DNA FP = 29; Beta2AR agonist = -1; rRNA inh HTS = x; rRNA inh HTS OD600 = x; rRNA inh HTS RFP = x; UCH37 DUB inh = -1.1

(further entries)
SMILES	FGF22 binding	ALR H2O2 inh	E coli growth	HNF4A DNA FP	Beta2AR agonist	rRNA inh HTS	rRNA inh HTS OD600	rRNA inh HTS RFP	UCH37 DUB inh
O=C(Nc1ccc(S(=O)(=O)NCc2ccco2)cc1)c1cccc(F)c1	i	x	0.63	-3.9	2	-6	-2	-3.0	-1.0
CCCc1ccc2oc(C(=O)N3CCN(c4cnccn4)CC3)c(C)c2c1	i	-8	0.66	2.4	-3	-43	-65	-10	-24
O=C(NC12CC3CC(CC(C3)C1)C2)c1ccc(N2CCNCC2)c([N+](=O)[O-])c1	i	-3	0.69	0.8	7	x	x	x	6.7
CNC(=O)c1c(NC(NC(=O)c2ccco2)C(=O)c2ccc(Cl)cc2)sc2c1CCCC2 (stereo unspecified)	i	0	0.71	1.2	6	-10	-5	7.1	2.5
Cc1cc2cc3c(cc2nc1SCC(=O)OC(C)C)OCO3	x	x	0.69	1.4	x	x	x	x	1.1
COc1ccc([C@]2(C(C)C)ON(c3ccccc3C(F)(F)F)C2=O)cc1	i	-2	0.68	-4.8	3	2	9	-0.8	1.2
O=[N+]([O-])c1ccc2nc(N3CCCC3)sc2c1	i	-14	0.63	2.5	1	2	2	-1.5	5.5
O=C(NCc1ccc(F)cc1)C1CCCN(C(=O)Nc2ccccc2)C1 (stereo unspecified)	x	9	0.68	5.7	-6	x	x	x	3.3
Cc1sc(NC(=O)c2ccccc2)c(C#N)c1-c1ccccc1	x	-1	0.7	-2.5	6	x	x	x	-71
CCCCCCCCSC1=CC(=O)C(OC)=C(OC)C1=O	i	x	x	-0.7	x	9	10	-2.5	x
COC(=O)c1c(C)noc1-c1snnc1C	i	-4	0.6	0.3	6	10	11	0.1	2.1
O=C(O)CCCN1C(=O)C2C3C=CC(C2C1=O)C1C(=O)N(CCCC(=O)O)C(=O)C31 (stereo unspecified)	i	x	0.65	-2.8	-5	17	8	3.9	-0.2
CCOc1ccc(S(=O)(=O)NCc2ccco2)cc1	x	-1	0.75	-1.1	11	x	x	x	-1.5
CSCCC(NS(=O)(=O)c1ccc(C)cc1)C(=O)Nc1ccc(C)cn1 (stereo unspecified)	i	-4	0.71	-0.6	5	11	12	3.9	2.4
CCN(CC)C(=O)CSc1nc2cc3c(cc2c(=O)n1CCCC(=O)NCc1ccc(OC)cc1)OCO3	i	-18	0.71	1.1	-5	3	1	-0.2	0.1
COc1ccc(/C=c2/sc3n(c2=O)C(c2ccccc2OC)C2=C(N=3)c3ccccc3CC2)cc1O (stereo unspecified)	x	-41	x	20	-9	x	x	x	x
O=C(C(c1ccccc1)c1ccccc1)N1CCC(c2nc(-c3ccccc3Cl)no2)CC1	x	-7	0.75	-1.3	-3	x	x	x	0.9

Only part of the results is shown. The share of hits here may be higher or lower than overall.
